Screening data deposited in PubChem by several laboratories.
Mtb betalactam – beta-lactam sensitization of Mtb H37Rv. M. tuberculosis H37Rv growth with meropenem, percent inhibition; hits of this screen are not shown here. inhibition, % at 25 µM. hit rate 0.27% among 330,000. AID 434955;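 active means about 74% or more and at least 40 points above the plate without the antibiotic, then above 30% in a dose series; inconclusive means first-round hits that could not be retested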;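 further: growth measured after seven days incubation then overnight dye step; 0% = bacteria only wells and 100% = bacteria with antibiotic; twin plates without the antibiotic show which effects depend on it; some results filed as inactive read as strong as hits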
YopH inh – blocks Yersinia enterocolitica YopH tyrosine phosphatase | fluorescence Ex485/Em525 | inhibition, %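 (about 10 µM by stock and volumes)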 | hit rate 0.16% among 140,000;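 active means inhibition of 50% or more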;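 further: controls were vehicle for no effect and minimum signal wells for full effect; inactives centre near -20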
RecA intein inh – inhibitors of M. tuberculosis RecA intein splicing; cell-free RecA intein splicing, fluorescence; inhibition, %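 (about 9 µM by stock and volumes)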; hit rate 0.75% among 290,000; AID 2221; in the data active means inhibition above about 30%; inconclusive means no clear call, values can overlap the other calls;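 further: 0% = vehicle wells and 100% = reference inhibitor control wells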
Target sequence (P9WHJ3 whole entry, looked up): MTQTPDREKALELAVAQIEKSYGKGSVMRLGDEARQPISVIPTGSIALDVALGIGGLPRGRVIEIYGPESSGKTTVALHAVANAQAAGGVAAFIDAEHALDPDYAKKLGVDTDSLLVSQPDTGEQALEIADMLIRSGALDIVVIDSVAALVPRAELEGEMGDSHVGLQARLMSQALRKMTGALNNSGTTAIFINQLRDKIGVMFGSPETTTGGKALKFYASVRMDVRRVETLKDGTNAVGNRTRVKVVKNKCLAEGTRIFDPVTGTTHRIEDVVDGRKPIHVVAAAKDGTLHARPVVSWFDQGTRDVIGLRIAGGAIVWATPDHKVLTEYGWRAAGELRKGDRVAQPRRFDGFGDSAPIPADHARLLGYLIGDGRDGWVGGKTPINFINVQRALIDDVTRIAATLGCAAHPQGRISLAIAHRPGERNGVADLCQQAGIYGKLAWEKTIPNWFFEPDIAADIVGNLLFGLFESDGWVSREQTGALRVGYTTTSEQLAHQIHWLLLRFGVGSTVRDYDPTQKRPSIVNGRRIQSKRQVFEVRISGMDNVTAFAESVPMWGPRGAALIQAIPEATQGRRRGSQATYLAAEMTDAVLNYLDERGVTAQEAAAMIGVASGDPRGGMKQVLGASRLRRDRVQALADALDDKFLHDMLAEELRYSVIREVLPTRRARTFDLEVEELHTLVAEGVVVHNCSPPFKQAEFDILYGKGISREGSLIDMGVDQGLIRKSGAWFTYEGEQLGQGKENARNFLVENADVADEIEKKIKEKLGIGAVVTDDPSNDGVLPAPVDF
Mtb growth – M. tuberculosis H37Rv growth inhibitors, H37Rv strain (AID 1626); M. tuberculosis H37Rv growth inhibition; higher % means a stronger effect; inhibition, % at 10 µM; hits with a dose series show IC50 in µM; hit rate 0.95% among 220,000;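 active means confirmed in a dose series; inconclusive means inhibition above 80% but not taken into the dose series; inactive means below 80% or under 30% at every dose of the series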;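 further: bacteria incubated seven days before Alamar blue readout; 0% = bacteria only wells and 100% = bacteria with antibiotic wells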
Arbovirus anti – blocks arbovirus infection; arbovirus infection cell-based antiviral screen; inhibition, % at 10 µM; hit rate 0.37% among 200,000;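 active means inhibition from about 30%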;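 further: bluetongue infection of BSR cells; cell survival read as ATP light after 72 h; 0% = infected wells without compound and 100% = uninfected wells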
Arbovirus anti repeat – also measured in Arbovirus anti; calls as there; inhibition, %; measured here: 10K subset replicate screen; many hits read low in the repeat;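 first of two repeat runs on a subset; 0% = infected and 100% = uninfected wells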
* marks the source's active call; other numbers are inactive results; ? = inconclusive; / = no result given. An excerpt; count on the stated rates, not on these rows.

SMILES | Mtb betalactam | YopH inh | RecA intein inh | Mtb growth | Arbovirus anti | others
CC(=O)c1cccc(NC(=O)c2sc(Cl)nc2C)c1 | -6 | / | -2.3 | / | /
COC(=O)c1ccc(CON2C(=O)c3ccccc3C2=O)cc1 | -2 | 8 | -2.5 | -7% | -6
Oc1ccc(-c2sc(Nc3ccccc3)n[n+]2-c2ccc(F)cc2)cc1 | -6 | / | -0.6 | / | /
CCOC(=O)C1CCN(Cc2cn[nH]c2-c2ccc(C)cc2)CC1 | -6 | 12 | 0.0 | -2% | -3
Cc1ccc(CNC(=O)CCCn2c(=O)c3ccccc3n(CC(=O)NCc3ccco3)c2=O)cc1 | -7 | -7 | 1.7 | -5% | -11
CC(=O)N/N=C(/C)c1ccc(NC(=O)c2csc(C)c2C)cc1 | 3 | / | -2.5 | / | /
c1ccc2c(c1)OCc1cn[nH]c1-2 | -1 | / | -0.3 | -7% | /
COc1ccc(C(=O)CC(=O)c2ccccc2)cc1 | 63 | / | 4.3 | / | /
O=C(Nc1ccc(F)c(Cl)c1)C1CC(=O)n2c(nc3ccccc32)N1 (stereo not given) | -10 | / | 0.4 | -6% | 1
COc1cccc(NC(=O)C2C3C=CC(O3)C2C(=O)NCc2cccnc2)c1 (stereo not given) | 4 | -6 | -1.8 | -1% | -2
COC(=O)C1[C@H]2C(=O)N(Cc3cccs3)C[C@]23C=C[C@H]1O3 (stereo not given in full) | -5 | -60 | -0.6 | -3% | 3
Cn1c(SCC(=O)Nc2ccc(Br)cc2F)nnc1-c1ccco1 | -1 | / | 13 | -5% | 3
COc1ccc(C2(CNC(=O)c3cccc([N+](=O)[O-])c3)CCOCC2)cc1 | -5 | -25 | 0.8 | 6% | -6
Nc1ccc(C(=O)N(CCO)CCO)cc1 | -9 | / | 0.0 | -5% | -1
C[C@@H]1C=C(C(=O)N2CCN(C)CC2)O[C@H](OCc2ccc(CO)cc2)C1 | -4 | / | -1.7 | -4% | 3
Fc1ccccc1CSc1nncn1NCc1cccs1 | 1 | -20 | -1.3 | -7% | 1
CC(=O)c1ccc(NC(=O)CSc2ccc(-c3sc(C)nc3C)nn2)cc1 | 3 | / | -1.0 | / | /
Cc1cc(/C=N/NC(=O)CC2(C)OCCO2)c(C)n1-c1cc(Cl)cc(Cl)c1 | -4 | 2 | 1.5 | 3% | -2
O=C1CC(C2CCCO2)C(=O)N1c1cccc(Cl)c1 (stereo not given) | -29 | -27 | -2.3 | -5% | -1
N#C/C(=C\c1ccc(-c2ccc(C(=O)O)cc2)o1)C(=O)NCC1CCCO1 (stereo not given) | -5 | -30 | -54 | 0% | 3
Cn1c(N2CCC(C(N)=O)CC2)nc2c1c(=O)n(Cc1ccc(Br)cc1)c(=O)n2C | 0 | 0 | -0.5 | -4% | /
CC(C)CC(=O)/C(=C/c1ccc(N(C)C)cc1)n1cncn1 | 1 | / | -0.9 | / | /
CN1C(=S)N(c2cccnc2)C(=O)/C1=C\c1ccc(N(C)C)cc1 | / | / | 1.3 | 2% | -5
CN(C(=O)Cc1noc2ccccc12)c1ccccc1 | -3 | -14 | -8.0 | -11% | -1
Cc1cccc(CN2CCN(C3CCCC3)C(CCO)C2)n1 (stereo not given) | -11 | / | 0.5 | 2% | 1
Cc1cc(C)cc(N(CC(=O)NCCSCc2ccccc2)S(C)(=O)=O)c1 | -4 | / | -0.5 | -2% | -8
C=CCN(CC=C)C(=O)c1cccc(OC2CCN(CC(C)(C)C)CC2)c1 | -4 | / | -0.1 | / | /
Cc1ccn2c(CNCC3COCCO3)c(C(=O)N3CCCCCC3)nc2c1 (stereo not given) | 5 | / | -1.9 | / | /
O=C1c2ccccc2C(=O)c2c(NCCCN(CCO)CCO)cccc21 | / | / | 2.1 | 9% | -24
COc1ccc(OC)c(C(=O)NC2CC(C)(C)Cc3c2cnn3-c2ccccc2)c1 (stereo not given) | 7 | / | 11 | / | /
COc1ccc(N(C(=O)c2cccnc2)S(=O)(=O)c2cccc([N+](=O)[O-])c2)cc1 | -5 | / | -2.8 | -7% | -2
Cc1ccc(NC(=O)c2ccc(NCCN)c([N+](=O)[O-])c2)cc1Cl | -2 | -21 | -4.0 | 1% | -36
Cc1ccc(CNC(=O)c2ccc(C)s2)cc1 | 7 | / | -0.9 | / | /
COc1ccc(NS(=O)(=O)c2ccc(N/N=C(\C)c3ccncc3)c([N+](=O)[O-])c2)cc1 | -2 | -17 | 5.2 | 3% | -2
C/C(=N\NC(=O)CCCNc1cccc(C)c1)c1ccncc1 | 12 | / | -2.3 | 2% | 4
c1ccc(Cn2nnc3cnccc32)cc1 | -1 | -31 | 0.6 | -2% | -16
C/C(=N/NS(=O)(=O)c1ccccc1)c1ccc(NC(=O)C2CC2)cc1 | -8 | / | 1.8 | 6% | 3
O=C(CS(=O)(=O)c1ccc(Cl)cc1)NCc1ccccc1 | 6 | / | -1.5 | / | /
O=C(Nc1cccc(C(F)(F)F)c1)c1sc(Cl)nc1C(F)(F)F | 6 | / | 20 | / | /
COc1ccc(C(=O)c2c(N)sc3c2CCN(C)C3)cc1 | -4 | / | -1.8 | / | /
CCN(C(=O)COC(=O)C(Cc1ccccc1)N1C(=O)c2ccccc2C1=O)C1CCS(=O)(=O)C1 (stereo not given) | -3 | -44 | -1.5 | -6% | 5 | Arbovirus anti repeat=6
CCN(c1ccc(C(O)(C(=O)OC)C(F)(F)F)cc1)S(=O)(=O)c1ccccc1 (stereo not given) | -6 | 0 | 1.5 | 3% | 6 | Arbovirus anti repeat=3
CC1CC(=O)N(c2ccc(N(C)Cc3ccccc3)c([N+](=O)[O-])c2)C1=O (stereo not given) | -10 | / | 0.2 | 1% | 18
COc1ccc(C(NC(=O)CC(C)C)c2c(O)ccc3ccccc23)cc1 (stereo not given) | 0 | / | -3.4 | / | /
Cc1ccc(-n2cc(CN3CCNC(=O)CC3)c(-c3cccc(C)c3)n2)cc1 | -1 | / | 14 | 0% | 5
Cc1cccc(N2CCN(C(=O)C3CCCN(S(=O)(=O)c4cnc[nH]4)C3)CC2C)c1 (stereo not given) | -7 | -17 | -1.5 | -6% | 2
O=S(=O)(Nc1cccc(-c2ccc3nncn3n2)c1)c1ccccc1F | -3 | / | -1.5 | / | /
CCOc1ccc(NC(=S)Nc2cccc3ccccc23)cc1 | 74 | / | 4.0 | / | /
Cc1ccc(-c2nnc(NCc3nc4ccccc4[nH]3)c3ccccc23)cc1S(=O)(=O)N1CCCCC1 | 99 | -30 | 9.3 | 58% | -18
N#Cc1ccsc1NC(=O)CN1CCN(c2ccc(O)cc2)CC1 | -3 | -27 | 2.3 | 4% | -28
O=C(Nc1cc(C(F)(F)F)ccc1Cl)C(=O)N1CCCCC1 | -3 | -18 | -3.5 | -7% | -3
Brc1ccc(-c2nc3ccccc3s2)s1 | -4 | -29 | -0.7 | -2% | 3
CC(C)(C)C(=O)NC(=S)N1CCOCC1 | 1 | -31 | -1.2 | -4% | 9
Cn1nccc1C(=O)N1CCCC(C(=O)c2ccc(Oc3ccccc3)cc2)C1 (stereo not given) | 4 | / | -0.3 | / | /
CC(C)(C)c1ccc(S(=O)(=O)CC(O)CSc2nc3c(cc2C#N)CCCC3)cc1 (stereo not given) | 0 | -6 | 2.6 | / | -14
COc1ccc2oc(C(=O)OCC(=O)N(C)c3ccccc3)c(C)c2c1 | -4 | / | -8.3 | / | /
COC(=O)Cn1nc(-c2ccc(C)cc2)c2ccccc2c1=O | 64 | / | -1.0 | 1% | -1
COc1ccc(C(=O)NCc2ccccc2)cc1Br | -2 | -33 | 2.6 | 1% | 1
O=S1(=O)c2cccc3cccc(c23)N1Cc1ccc(-c2nnco2)cc1 | -5 | -49 | 0.6 | 1% | 2
C=CCN(C(=O)CCc1ccccc1OC)c1nc(-c2ccc(S(C)(=O)=O)cc2)cs1 | 10 | / | -3.1 | / | /

Following part
SMILES | Mtb betalactam | YopH inh | RecA intein inh | Mtb growth | Arbovirus anti | others
COc1ccc(CN(C)C(=O)c2cc(-c3ccccc3)nc3ccc(C)cc23)c(OC)c1OC | 12 | / | 9.8 | / | /
Cc1cc(C)cc(C(=O)N2CCC3(CC2)NCCc2[nH]cnc23)c1 | -3 | / | -2.9 | / | /
CN1CCN(S(=O)(=O)c2cccc(C(=O)Nc3ccccc3N3CCOCC3)c2)CC1 | -3 | / | -0.5 | -2% | -5
C[N+]1(CCCCCCC(=O)/C=N/O)CCCCCC1 | -4 | -4 | 1.6 | -3% | 8
O=C(CSc1nc(O)c(C2CCCCC2)c(=O)[nH]1)Nc1ccccc1Cl | -6 | / | 7.0 | / | /
COC(=O)c1ccc(CNC(=O)C2CCC(=O)N(CCCc3ccccc3)C2)cc1 (stereo not given) | -8 | / | -0.8 | / | /
CN(C)S(=O)(=O)c1ccc2c(c1)nc(CCC(=O)NCC1CCCCC1)n2C | -3 | -38 | 2.2 | 2% | 1
COC(=O)c1ccc(CSc2ncnc3sc(C)c(C)c23)o1 | -2 | -28 | 1.8 | 2% | -2
COc1ccc(C(=O)Nc2ccccc2C(=O)O)cc1Cl | 7 | -31 | -0.3 | 12% | 56*
CC(C)(C)NC(=O)C(c1ccccn1)N(C(=O)C1CSC(=O)C1)c1ccc(F)cc1 (stereo not given) | -7 | -27 | 2.7 | -6% | 14
Cc1ccc(N2CC(C(=O)NCc3n[nH]c(=O)c4ccccc34)CC2=O)cc1 (stereo not given) | -2 | / | -3.4 | / | /
COc1ccccc1CNC(=O)CCC(=O)N1C[C@H]2C[C@@H](C1)c1cccc(=O)n1C2 | -10 | / | -3.1 | / | /
Nn1c(Cc2ccccc2F)nnc1SCC(=O)Nc1cccc(S(=O)(=O)NC2=NCCCCC2)c1 | -7 | / | -2.3 | 4% | 0
COC(=O)c1nc2ccccn2c1F | -6 | / | 1.7 | -3% | 2
Cc1cc(-c2c(C)[nH]n(-c3ccccc3)c2=O)n[nH]1 | 100 | / | -4.9 | 11µM* | -3
CSc1ncc(C(=O)O)n1-c1ccc(F)cc1 | -2 | -57 | -1.1 | 0% | 6
Cc1cccc(N2C(=O)CC(N(O)c3ccccc3)C2=O)c1 (stereo not given) | 2 | 21 | -5.0 | -6% | 0
CCOC(=O)C1CC=C(Cl)CC1C(=O)Nc1nccs1 (stereo not given) | -2 | 32 | -0.7 | 4% | 7
Cc1ccc(Nc2ncnc(N)n2)cc1C | -2 | / | 1.3 | 1% | -1
CC1CCc2[nH]c3ccc(C(=O)N(C)CC(=O)Nc4ccccc4Br)cc3c2C1 (stereo not given) | -7 | / | 1.8 | / | /

Molecules shown so far containing a COOH group (3):
SMILES | Mtb betalactam | YopH inh | RecA intein inh | Mtb growth | Arbovirus anti | others
N#C/C(=C\c1ccc(-c2ccc(C(=O)O)cc2)o1)C(=O)NCC1CCCO1 (stereo not given) | -5 | -30 | -54 | 0% | 3
COc1ccc(C(=O)Nc2ccccc2C(=O)O)cc1Cl | 7 | -31 | -0.3 | 12% | 56*
CSc1ncc(C(=O)O)n1-c1ccc(F)cc1 | -2 | -57 | -1.1 | 0% | 6

Gathered by group, the compounds so far with a cyano group.
SMILES | Mtb betalactam | YopH inh | RecA intein inh | Mtb growth | Arbovirus anti | others
N#C/C(=C\c1ccc(-c2ccc(C(=O)O)cc2)o1)C(=O)NCC1CCCO1 (stereo not given) | -5 | -30 | -54 | 0% | 3
N#Cc1ccsc1NC(=O)CN1CCN(c2ccc(O)cc2)CC1 | -3 | -27 | 2.3 | 4% | -28
CC(C)(C)c1ccc(S(=O)(=O)CC(O)CSc2nc3c(cc2C#N)CCCC3)cc1 (stereo not given) | 0 | -6 | 2.6 | / | -14

Structures listed so far containing a CF3 group, in the order listed:
SMILES | Mtb betalactam | YopH inh | RecA intein inh | Mtb growth | Arbovirus anti | others
O=C(Nc1cccc(C(F)(F)F)c1)c1sc(Cl)nc1C(F)(F)F | 6 | / | 20 | / | /
CCN(c1ccc(C(O)(C(=O)OC)C(F)(F)F)cc1)S(=O)(=O)c1ccccc1 (stereo not given) | -6 | 0 | 1.5 | 3% | 6 | Arbovirus anti repeat=3
O=C(Nc1cc(C(F)(F)F)ccc1Cl)C(=O)N1CCCCC1 | -3 | -18 | -3.5 | -7% | -3

Additional structures
SMILES | Mtb betalactam | YopH inh | RecA intein inh | Mtb growth | Arbovirus anti | others
CC(C)N1C(=O)N(c2ccc(Cl)cc2)C(C)(O)CC1(C)C (stereo not given) | -10 | / | 2.4 | / | /
Cc1nnsc1C(=O)N1CCN(c2ccc(F)cc2)CC1 | -3 | / | 1.0 | 0% | /
Cc1ccc(S(=O)(=O)N2CCCCC2)c(C)c1NS(C)(=O)=O | -2 | / | -2.3 | -2% | 1
O=C(NCc1ccc(F)cc1)c1cccs1 | 3 | / | 1.4 | / | /
Cc1nc(CSc2nsc(C)c2C#N)cs1 | -1 | / | -1.1 | / | 2
COc1ccc(C2=NOC(C(=O)NC3CCCCC3)C2)cc1OC (stereo not given) | ? | -23 | -0.9 | -6% | 10
O=C(NC(Cc1ccccc1)C(=O)O)C1CCN(S(=O)(=O)c2ccccc2C(F)(F)F)CC1 (stereo not given) | -1 | / | -8.1 | / | /
